Sfp PPTase inh = qHTS Assay for Inhibitors of Bacillus subtilis Sfp phosphopantetheinyl transferase (PPTase). Biochemical Sfp PPTase activity, qHTS. AID 1490, 2009. Potency, µM, for inactives: max response, negative = inhibition, actives largely listed as inhibitors. 4'-phosphopantetheinyl transferase ffp (Bacillus subtilis), Q9F4F7. actives 3.5% (n = 310,000); active means well fitted inhibition curve with a large enough effect; inconclusive means small, poorly fitted or top-dose-only effect, or another doubt; inactive means no such curve, though single readings can be large or run the other way;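 further: the enzyme is Sfp with the accession as filed and its product quenches rhodamine fluorescence; potency means the concentration at half of the fitted maximal effect; 0% = enzyme reaction without inhibitor and -100% = no enzyme wells; top concentration of the series not given in the record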
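Sfp 15 nM + cpd, 15 min RT; start w/ rhodamine-CoA 5 uM, BHQ-2-YbbR 12.5 uM (final); 50 mM Hepes pH 7.6, 10 mM MgCl2, 0.01% NP-40, 0.01% BSA; read 525/598 nm at 0 and 30 min.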
Menin-MLL FL inh = qHTS Assay for Inhibitors Targeting the Menin-MLL Interaction in MLL Related Leukemias: Competition With Fluorescein Labeled MLL-derived Peptide. FP activity change, % at 61.4 µM. 290,000 tested, under 10 active. Fluorescence polarization, fluorescein-MLL peptide displacement from menin. AID 1766, 2009; inconclusive = falling polarisation curve, or a change in total fluorescence; inactive = total fluorescence flat and polarisation flat or rising; no compound was filed as active; the % refers to the polarisation; negative = inhibition;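 further: % of control where 0% means no effect; inhibitors lower the polarisation; unlabelled MLL peptide was the positive control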
Numbers without * were called inactive; ? = inconclusive; & = joins results of further samples; [ ] = another dose, or the depositor's remark.

SMILES	Sfp PPTase inh	Menin-MLL FL inh
N#CCCCS(=O)(=O)c1nc2ccccc2s1	19%	3.2
COc1ccc(-c2nnc3n2N=C(c2c(OC)cccc2OC)CS3)cc1OC	9%	2.9
CCOC(=O)N/N=C1/C[C@@H](O)[C@@H](O)[C@@H]2[C@@H]3C(=O)N(Cc4ccccc4)C(=O)[C@H]3CC[C@H]12	16%	-0.9[11.7 µM]
CC#CCN1c2ccccc2[C@]23C[C@@H](C(=O)OC)N(S(=O)(=O)c4ccc([N+](=O)[O-])cc4)C2=NC(C(=O)OC)=C(C(=O)OC)[C@H]13	1%	-8.0[11.7 µM]
O=c1n(-c2ccccc2)c(=O)n2n1CC[C@H]1/C(=N\OCc3ccccc3)[C@H]3O[C@@H]3[C@@H](O)[C@@H]12	5%	0.1[11.7 µM]
CN(C)c1ccc(-c2cc(NCc3cccnc3)ncn2)cc1	-3%	3.5
CCCCCCCCCCCCC/C=C/[C@@H](O)[C@H](CO)NC(=O)CCCCCCCCCCCCCCC	-4%&2%	4.5
Cc1ccc(S(=O)(=O)N[C@@H]2COC(=O)C/C=C\[C@H](C)COC(=O)N[C@@H](C)C(=O)C/C=C\[C@H]2C)cc1	14%	0.4[11.7 µM]
CNCC[C@H](Oc1ccccc1OC)c1ccccc1	8%&-4%	?
CC/C=C\C/C=C\C/C=C\CCCCCCCCCCCC(=O)O	15%&-8%	-0.1
OCC(O)C(O)[C@H](O[C@H]1OC(CO)C(O)C(O)C1O)[C@H](O)CO (stereo partly drawn)	21%	2.0
CCc1c2c(nc3ccccc13)OC(C)C2 (stereo not drawn)	16%	-0.7
Cn1cc(-c2nc3cnc(N4CCOCC4)nc3n(CCC#N)c2=O)c2ccccc21	32%[activator]	?
CC(=O)N1CC[C@H]2CC(=O)CC[C@@]21C	-8%	4.5[138 µM]
CO[C@@H]1COC(=O)C/C=C\[C@@H](C)[C@H](OC)COC(=O)C/C=C\[C@H]1C	11%	0.3[11.7 µM]
CC[C@]1(O)C[C@@H]2CN(CCc3c([nH]c4ccccc34)[C@](C(=O)OC)(c3cc4c(cc3OC)N(C=O)[C@H]3[C@@](O)(C(=O)OC)[C@H](C(=O)OC)[C@@]5(CC)C=CCN6CC[C@]43[C@H]65)C2)C1	-14%	?
CC(=O)O[C@@H](C)C[N+](C)(C)C	20%	2.8[24.8 µM]
O=c1c(-c2cc(F)cc(F)c2)nc2cnc(N3CCOCC3)nc2n1CCc1ccccc1	1%	-6.5
CCOC(=O)CC(C(=O)OCC)C1CCCCC1=O (stereo not drawn)	23%	3.7
NCCCC[C@H](NC(=O)[C@H](CCCN=C(N)N)NC(=O)[C@H](CO)NC(=O)[C@H](CCCN=C(N)N)NC(=O)[C@@H](N)Cc1ccc(O)cc1)C(=O)N[C@@H](Cc1ccc(O)cc1)C(=O)N[C@@H](CO)C(=O)N[C@@H](CO)C(=O)N[C@@H](Cc1c[nH]c2ccccc12)C(=O)N[C@@H](Cc1ccc(O)cc1)C(=O)O	9%	-16
COC(=O)[C@@H]1C[C@@]2(O)[C@H](O)[C@H](O)[C@H](O)C[C@H]2N1Cc1c(F)cccc1Cl	10%	-1.0
Clc1ccccc1-c1cncnc1NCc1cccs1	-17%	-1.3
CNc1ncnc2ccc(-c3cccc(OC)c3)cc12	-7%	-1.0
CC12CC[C@@H]3c4ccc(OS(=O)(=O)O)cc4CC[C@H]3C1CCC2=O (stereo partly drawn)	20%	3.8[24.8 µM]
CCOC(=O)N/N=C1/C[C@@H](O)[C@@H](O)[C@@H]2[C@@H]3C(=O)N(c4cccc(Oc5ccccc5)c4)C(=O)[C@H]3CC[C@H]12	3%	1.2[11.7 µM]
CSCC[C@H](NC(=O)[C@H](CC(C)C)N(C)C(=O)[C@@H]1CCCN1C(=O)[C@H](Cc1ccccc1)NC(=O)[C@H](Cc1ccccc1)NC(=O)CCC(C)N)C(=O)O (stereo partly drawn)	-20%	-2.4
CCCCCCCCCCC/C=C\C(C)(C)/C=C\CCCC(=O)O	5%&-2%	-2.3&0.3
CC(C)C[C@H](NC(=O)[C@H](Cc1ccccc1)NC(=O)CNC(=O)[C@H](CCC(=O)O)NC(=O)[C@H](CCCNC(=N)N)NC(=O)[C@H](C)NC(=O)[C@H](C)NC(=O)[C@@H](N)CC(=O)O)C(=O)N[C@@H](CC(=O)O)C(=O)N[C@H](C(=O)N[C@@H](CC(C)C)C(=O)N[C@H](C(=O)N[C@H](C(=O)N[C@@H](CC(C)C)C(=O)N[C@@H](Cc1cnc[nH]1)C(=O)N[C@@H](CCCNC(=N)N)C(=O)N[C@@H](C)C(=O)NCC(=O)N[C@@H](C)C(=O)N[C@@H](CCCNC(=N)N)C(=O)O)C(C)C)C(C)C)[C@@H](C)O	7%	-2.5
O=C(c1cccc(F)c1)N1CCC[C@@]2(CCN(c3ncccn3)C2)C1	8%	-0.1
CC[C@@H]1OC(=O)[C@@H](C)[C@H](O[C@H]2C[C@@](C)(OC)[C@@H](O)[C@H](C)O2)C(C)[C@H](O[C@H]2O[C@@H](C)C[C@@H](N(C)C)[C@@H]2O)[C@@](C)(O)C[C@H](C)C(=O)[C@@H](C)[C@H](O)[C@@]1(C)O (stereo partly drawn)	7%	-5.0
Cc1cc2c(c(=O)o1)[C@H](O)[C@H]1O[C@@H]1C2=O	-13%	9.4[11.7 µM]
Cn1cccc1C(=O)N1CCC2(CCN(Cc3ccncc3)CC2)CC1	19%	-3.9
c1ccc(CNc2cc(-c3cccnc3)ncn2)cc1	8%	8.6
COC1[C@H](OC(N)=O)C(O)[C@H](Oc2ccc3c(O)c(NC(=O)c4ccc(O)c(CC=C(C)C)c4)c(=O)oc3c2C)OC1(C)C (stereo partly drawn)	-11%	-6.2
CN1CCC2(CC1)CCN(C(=O)c1ccncc1)CC2	14%	-0.9
N#C/C(=C\c1ccc(O)c(O)c1)C(=O)OCCc1cccs1	1%	?
Cc1cnc(CNc2ncnc3ccc(-c4ccccc4C)cc23)cn1	-3%	-4.9
CS(=O)(=O)Nc1cccc(-c2ccc3ncnc(N4CCNCC4)c3c2)c1	17%	-3.7
NS(=O)(=O)c1cc2c(cc1Cl)N[C@@H](C(Cl)Cl)NS2(=O)=O	9%	-2.1[24.8 µM]
O=C1[C@H]2CCn3c(=O)n(-c4ccccc4)c(=O)n3[C@H]2[C@H](O)[C@H]2O[C@@H]12	4%	3.1[11.7 µM]
Cn1c(=O)c(C(=S)NC(=O)C2CC2)c(N)n(Cc2ccccc2)c1=O	-7%	3.6
O=S(=O)(c1ccccc1)N1CCC2(CCCN(Cc3ccncc3)C2)CC1	18%	9.4
O=C(c1cccc(F)c1)N1CCC[C@@]2(CCN(Cc3ccncc3)C2)C1	7%	-2.6
NC(N)=Nc1ccc(Cl)cc1	12%	-6.3
COc1cccc(Cn2c(=O)c(C)nc3cnc(Oc4cccc(Cl)c4)nc32)c1	12%	?
CS(=O)(=O)Nc1cccc(-c2nc(NCc3ccccc3)c3ccccc3n2)c1	6%	-1.6
CC(=O)C1=C(O)C=C2Oc3c(C(C)=O)c(O)c(C)c(O)c3C2(C)C1=O (stereo not drawn)	9%	?
COc1ccccc1/C=C/C1=CC2(C)CC1(C)C(c1ccccc1OC)CC2=O (stereo not drawn)	0%	-1.1[11.7 µM]
CC[C@H]1C(c2cccc(C)c2)=NN(c2ccccc2)[C@@H]1CO	1%	23[94.6 µM]
COCCn1c(=O)c(-c2ccc(F)cc2)nc2cnc(N3CCOCC3)nc21	34%[activator]	4.2
CC(=O)NCCNc1ncnc2ccc(-c3ccoc3)cc12	-10%	0.4
CCCCC/C=C\C/C=C\CC1OC1C/C=C\CCCC(=O)O (stereo not drawn)	25%&18%	-1.7
CCCCc1nc2c(c3c1C[C@H](C)OC3)CN(C(=O)Nc1ccc(OC)cc1)CC2	4%	-5.7[11.7 µM]
Cn1c(=O)c(-c2ccccc2)nc2cnc(Nc3ccccc3)nc21	0%	-1.7
CCOC(=O)C1OC1C(=O)N[C@@H](CC(C)C)C(=O)NCCC(C)C (stereo partly drawn)	-1%	-0.9
O=C(c1cc(C(F)(F)F)cc(C(F)(F)F)c1)N1CCC2(CC1)CN(c1ccncc1)C2	5%	4.0
O=C1C2CCC(C2)[C@@H]2CCCCN12 (stereo partly drawn)	12%	7.7[138 µM]
Cc1cc2nc3c(=O)[nH]c(=O)nc-3n(CC(O)C(O)C(O)CO)c2cc1C (stereo not drawn)	15%&20%&14%&9%	?
CCCC(=O)O[C@]1(C(=O)CO)CCC2[C@@H]3CCC4=CC(=O)CC[C@]4(C)C3C(O)C[C@]21C (stereo partly drawn)	6%	-1.1
Cc1cccc(CNc2ncnc3ccc(-c4cccc(C#N)c4)cc23)c1	-14%	1.8

Next entries follow:
SMILES	Sfp PPTase inh	Menin-MLL FL inh
CS(=O)(=O)N1CCC[C@@]2(CCN(c3ccccc3)C2)C1	-4%	-3.7
COc1cc(C2=N/C(=C\c3ccccc3)C(=O)O2)cc(OC)c1OC	12%	-3.6
CC1(C)SC2C(NC(=O)C(N)c3ccccc3)C(=O)N2C1C(=O)O (stereo not drawn)	-26%	-0.2
Cc1ccc2oc(-c3ccccc3)cc(=O)c2c1	8%	-0.3
Cn1cccc1C(=O)N1CCC[C@@]2(CCN(C(c3ccccc3)c3ccccc3)C2)C1	11%	-1.3
C[C@]1(OC(=O)/C=C\c2ccccc2)C[C@@H](O)[C@@]2(O)C=CO[C@@H](O[C@H]3O[C@@H](CO)[C@@H](O)[C@@H](O)[C@@H]3O)[C@H]21	4%	-1.3[24.8 µM]
CC(=O)NCCNc1ncnc2ccc(-c3ccccc3C#N)cc12	9%	1.3
CCCn1c(C)nc2c(Nc3ccccc3)nc(C)nc21	15%	1.4
COC1OC2COC(c3ccccc3)OC2C(O)C1O (stereo not drawn)	-8%	85[activator]
CC(=O)NCCCS(=O)(=O)O	17%	1.5
O=S(=O)(CCc1ccccc1)c1nc2ccccc2s1	-19%	-2.0
Cc1nc(NC2CCCCC2)c2nc(-c3ccccc3)n(CCCN3CCOCC3)c2n1	13%	0.9

Entries above that contain a cyano group (5):
SMILES	Sfp PPTase inh	Menin-MLL FL inh
N#CCCCS(=O)(=O)c1nc2ccccc2s1	19%	3.2
Cn1cc(-c2nc3cnc(N4CCOCC4)nc3n(CCC#N)c2=O)c2ccccc21	32%[activator]	?
N#C/C(=C\c1ccc(O)c(O)c1)C(=O)OCCc1cccs1	1%	?
Cc1cccc(CNc2ncnc3ccc(-c4cccc(C#N)c4)cc23)c1	-14%	1.8
CC(=O)NCCNc1ncnc2ccc(-c3ccccc3C#N)cc12	9%	1.3

Back to the main list with the five entries that preceded the break.
SMILES	Sfp PPTase inh	Menin-MLL FL inh
CCCn1c(C)nc2c(Nc3ccccc3)nc(C)nc21	15%	1.4
COC1OC2COC(c3ccccc3)OC2C(O)C1O (stereo not drawn)	-8%	85[activator]
CC(=O)NCCCS(=O)(=O)O	17%	1.5
O=S(=O)(CCc1ccccc1)c1nc2ccccc2s1	-19%	-2.0
Cc1nc(NC2CCCCC2)c2nc(-c3ccccc3)n(CCCN3CCOCC3)c2n1	13%	0.9
CCCCCCCc1cc2c(cn1)=C(OC)C(C)(OC(C)=O)C(=O)C=2Cl (stereo not drawn)	20%	0.9
COc1cccc(Cn2c(=O)cnc3cnc(OCc4ccccc4)nc32)c1	-2%	2.1
CNC(=O)[C@H]1O[C@H](n2cnc3c(NCc4cccc(I)c4)ncnc32)[C@@H](O)[C@@H]1O	-7%	28
CCCC[C@H](NC(=O)[C@H](CC(C)C)NC(=O)CNC(=O)[C@@H](NC(=O)[C@H](Cc1ccccc1)NC(=O)[C@H](CO)NC(=O)[C@@H](N)CC(=O)O)C(C)C)C(N)=O	-3%	2.6
O=C(c1cc(C(F)(F)F)cc(C(F)(F)F)c1)N1CCC2(CCN(Cc3ccncc3)CC2)CC1	21%	1.4
CCN1C(=O)[C@H]2[C@H]3[C@H](O)[C@H](O)C/C(=N/O[C@@H]4O[C@H](COC(C)=O)[C@@H](OC(C)=O)[C@H](OC(C)=O)[C@H]4OC(C)=O)[C@@H]3CC[C@@H]2C1=O	2%	3.2[11.7 µM]
CO[C@@H]1COC(=O)C/C=C\[C@H](C)[C@H](OC)COC(=O)[C@H]2CCCN2C(=O)C/C=C\[C@H]1C	13%	3.1[11.7 µM]
CC(C)OC(=O)[C@@H]1CC[C@H](C)[C@@H](CCCC=O)O1	13%	0.7
CC[C@H](C)[C@H](N)C(=O)N[C@H](C(=O)N[C@@H](CO)C(=O)N[C@@H](C)C(=O)N[C@H](C(=O)N[C@H](C(=O)NCC(=O)N[C@H](C(=O)N[C@@H](CC(C)C)C(=O)O)[C@@H](C)CC)C(C)C)C(C)C)[C@@H](C)CC	1%	-1.1
CN1C(=O)C[C@H](C(=O)O)[C@@H]1c1cccnc1	-9%	-0.1

High-throughput results as filed in PubChem BioAssay.

Some of the compounds tested. The share of hits here may be higher or lower than overall.
